# Screens (PubChem)
# D2 agonist = agonists of human D2 dopamine receptor (beta-arrestin); P14416; DiscoveRx PathHunter D2 beta-arrestin, luminescence, 90 min; 100% = 57 uM dopamine signal; activation, % (no concentration beside the values); 0.084% of 360,000 active; in the data active = activation above about 40%; inconclusive = about 15% to 40%; inactive = below about 15%; also: compound concentration not given in the record; the text of the record calls up to 30% inactive
# Target sequence (P14416 whole entry, looked up): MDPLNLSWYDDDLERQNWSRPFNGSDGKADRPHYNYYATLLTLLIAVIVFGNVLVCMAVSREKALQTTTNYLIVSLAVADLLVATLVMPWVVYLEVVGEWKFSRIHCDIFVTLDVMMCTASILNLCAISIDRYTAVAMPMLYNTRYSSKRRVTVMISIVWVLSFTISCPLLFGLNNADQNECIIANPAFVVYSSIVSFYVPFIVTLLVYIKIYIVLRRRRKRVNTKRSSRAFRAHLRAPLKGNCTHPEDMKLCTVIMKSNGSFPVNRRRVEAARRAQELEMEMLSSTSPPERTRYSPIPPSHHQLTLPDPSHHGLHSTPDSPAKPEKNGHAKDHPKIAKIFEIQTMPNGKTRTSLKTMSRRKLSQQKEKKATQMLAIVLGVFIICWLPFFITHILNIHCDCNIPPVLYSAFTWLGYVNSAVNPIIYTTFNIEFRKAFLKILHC
#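 Agonist mode: compounds alone added to overnight-plated D2 PathHunter cells for 90 min at 37 C, with 57 uM final dopamine (EC100) defining full response. Beta-arrestin recruitment detected by chemiluminescent reagent, read after 1 h at ambient temperature.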
# PINK1 expr mod = changes PINK1 expression. Potency, µM (doses to about 76.6 µM), for the others: at the top dose activation (PINK1 increase), usual class: activators. 0.2% of 410,000 active. PINK1 immunofluorescence, high-content cytometry, 24 h; active = well fitted activation curve with a large enough effect; inconclusive = small, poorly fitted or top-dose-only effect; inactive = flat fitted curve, though single readings scatter; cell line not stated here;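 also: potency is read from the fitted curve at half-maximal effect; % of control where 0% means no effect; nearly all actives have a fitted effect of over 65% in size; a mitochondrial uncoupler was the plate control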
#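 PINK1 protein level read as immunofluorescence by microplate cytometer in a fixed, stained stable cell line after 24 h exposure to five compound concentrations, with CCCP as control.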
# D2 PAM = positive allosteric modulators of human D2 dopamine receptor. 0.23% of 360,000 active. P14416. DiscoveRx D2 beta-arrestin cells, luminescence, 90 min; 100% = 57 uM dopamine signal. potentiation, % (concentration not given with the values); active = potentiation of 50% or more; inconclusive = 30% to 50%; inactive = 30% or less;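 also: compound concentration not given in the record; tested on top of an EC20 dose of dopamine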
#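 PathHunter D2 cells, attached overnight at 37 deg C, received compound in DMSO plus dopamine at EC20 (50 nM final) for 90 min at 37 deg C. Beta-arrestin recruitment was read as luminescence after 1 h with detection reagent at ambient temperature.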
# TRPML1 ag = human mucolipin-1 channel agonism; TRPML1-expressing cells, Ca2+ dye fluorescence, FDSS; host cell line not named in the record; reference of the full effect not given here; activation, % (concentration not given with the values); 0.12% of 410,000 active; in the data active = activation above about 50%; inconclusive = about 30% to 50%; inactive = below about 30%; also: 0% is about no effect; the text of the record puts the active cut at 80%
# Target sequence (Q9GZU1 whole entry, looked up): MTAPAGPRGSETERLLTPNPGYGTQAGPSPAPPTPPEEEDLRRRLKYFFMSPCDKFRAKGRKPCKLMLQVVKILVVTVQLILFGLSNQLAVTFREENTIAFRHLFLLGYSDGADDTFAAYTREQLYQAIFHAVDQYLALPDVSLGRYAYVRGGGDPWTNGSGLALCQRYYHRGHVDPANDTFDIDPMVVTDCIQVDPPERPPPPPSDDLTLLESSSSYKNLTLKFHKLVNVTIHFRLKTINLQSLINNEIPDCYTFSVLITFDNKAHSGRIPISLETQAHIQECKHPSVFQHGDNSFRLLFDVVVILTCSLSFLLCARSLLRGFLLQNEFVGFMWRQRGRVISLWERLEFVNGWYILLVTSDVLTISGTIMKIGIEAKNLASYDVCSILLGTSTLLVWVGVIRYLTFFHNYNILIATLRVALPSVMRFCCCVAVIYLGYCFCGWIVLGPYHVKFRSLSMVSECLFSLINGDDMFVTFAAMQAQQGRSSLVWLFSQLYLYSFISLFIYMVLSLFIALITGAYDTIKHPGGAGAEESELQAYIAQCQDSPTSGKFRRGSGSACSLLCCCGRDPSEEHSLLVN
#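 Cells: TRPML1-DL, 1X Tet inducer, ~16 h at 37 degrees C/5% CO2. Dye: ABD Ca8 no-wash + quencher, 45-90 min RT. Read: 10 s baseline, compound add, 110 s agonist phase; 54-4 EC80 (4uM final), 110 s antagonist phase.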
# Six1-Eya2 inh = blocks human Six1 binding to Eya2. AlphaScreen GST-Six1/His-Eya2 binding, biochemical; stronger effect = lower value; control for the full effect not named in the record. Q15475+O00167. activity change, % (test concentration not listed). AID 651725. 0.56% of 360,000 active; in the data active = activity change below about -65%; inconclusive = about -30% to -65%; inactive = above about -30%; also: % is scaled to controls: 0 for no effect and ±100 for the full control effect; compound concentration not given in the record
#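 GST-Six1 + His-Eya2 (5X stock: 250/500 nM); Tris pH 8.0, 300 mM NaCl, 0.05% BSA, 0.02% Tween 20; GSH donor/Ni acceptor beads; 1 h 37 °C dark; AlphaScreen readout.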
# CtBP-E1A blk = inhibitors of CtBP/E1A interaction | AlphaScreen GST-E1A/His-CtBP binding, 1536-well; stronger effect = lower value; control for the full effect not named in the record | activity change, % (concentration not given with the values) | 0.49% of 340,000 active | AID 651724; in the data active means activity change below about -65%; inconclusive means about -30% to -65%; inactive means above about -30%; also: % is scaled to controls: 0 for no effect and ±100 for the full control effect
#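 AlphaScreen with 125 nM GST-E1A and 125 nM His-CtBP (5X stocks) in Tris pH 8.0, 300 mM NaCl, BSA, Tween 20, TCEP. Compounds preincubated 2 h at 37 deg C, then glutathione donor/nickel acceptor beads added for 1 h at 37 deg C in dark.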
# * marks the source's active call; other numbers are inactive results; ? = inconclusive; / = no result given; & = joins results of further samples; [ ] = another dose, or the depositor's remark. Not a hit list; about 1.3% have a hit in one of these screens.
1) CCOC(=O)N1CCN(c2cc(=O)n(-c3cccc(Br)c3)c(=O)[nH]2)CC1
2) CCC(=O)c1ccc(OCc2ccc(C(=O)OC)o2)c(OC)c1
3) CCn1ncc(C2C(C(=O)Nc3ccc(C)cn3)=C(C)NC3=C2C(=O)CCC3)c1C (stereo unspecified)
4) CCCc1cc(C(=O)OCC(=O)N2CCN(c3ccc(OC)cc3)CC2)sc1C
5) CCN(CC)CCNC(=O)C1CCC(=O)N1CCc1ccccc1 (stereo unspecified)
6) Cc1ccc(S(=O)(=O)N2CCCC2C(=O)Nc2nc3ccccc3s2)cc1 (stereo unspecified)

Compound,1,2,3,4,5,6
D2 agonist,-4.2,-2.2,-4.3,1.0,-2.7,11.7
PINK1 expr mod,0.5%,-0.2%,-0.9%,2.3%,-1.6%,12.0%[38.3 µM]
D2 PAM,-2.2,10.4,-2.5,9.6,-6.6,5.3
TRPML1 ag,-0.6,-1.7,0.2,3.6,-0.6,2.3
Six1-Eya2 inh,-0.4,-3.5,0.0,?,7.2,-0.9
CtBP-E1A blk,-0.1,4.2,-1.4,-2.4,12.7,6.7

7) O=S(=O)(c1ccc2c(c1)OCCO2)N1CCC(O)(c2ccc(Cl)cc2)CC1
8) O=C(CCN1C(=O)C2CCCCC2C1=O)Nc1nc2ccc(F)cc2s1 (stereo unspecified)
9) Cc1ccc(C(NC(=O)C2CCN(CCCOc3ccccc3)CC2)c2ccccn2)cc1 (stereo unspecified)
10) Cc1ccc(C(=O)NCCc2ccccn2)cc1S(=O)(=O)N1CCOCC1
11) COC(=O)N/N=C/c1cn(CCOc2ccccc2OC)c2ccccc12
12) O=C1CCN(CCc2ccccc2)CCN1[C@H](COc1ccccc1)Cc1ccccc1

Compound,7,8,9,10,11,12
D2 agonist,-3.9,-3.4,-4.4,1.2,-1.2,0.8
PINK1 expr mod,-3.2%,9.4%,0.4%,-0.2%,2.1%,1.5%
D2 PAM,0.4,-14.8,-14.4,4.8,3.0,-19.6
TRPML1 ag,2.6,1.0,-0.2,0.6,/,1.0&0.6
Six1-Eya2 inh,-3.8,8.5,-1.7,-1.1,-3.6,-12.9
CtBP-E1A blk,3.6,-15.1,-3.4,-5.7,0.7,3.7

13) Cc1ccc(S(=O)(=O)c2nc(-c3cccs3)oc2NCc2cccnc2)cc1
14) Cc1ccc2oc(NC(=O)N3CCOCC3)cc(=O)c2c1
15) COc1cc(C(=O)Nc2ccc3c(c2)OCO3)c([N+](=O)[O-])cc1OC
16) CC(NC(=O)COC(=O)Cc1ccc(Cl)cc1)c1ccccc1 (stereo unspecified)
17) O=C(CNCc1ccco1)Nc1cc(S(=O)(=O)N2CCOCC2)ccc1N1CCCC1
18) Cc1ccc2[nH]c(C)c(CC(=O)NCc3ccccc3)c2c1

Compound,13,14,15,16,17,18
D2 agonist,-2.5,-1.6,-3.1,-0.6,0.4,-0.6
PINK1 expr mod,1.3%,6.5%,5.4%,0.5%,0.0%,5.1%
D2 PAM,3.5,-19.6,-11.5,-5.0,-7.2,-9.4
TRPML1 ag,1.1,-0.2,-0.6,-0.5,-0.6,0.1
Six1-Eya2 inh,-4.4,11.1,11.1,0.8,-0.3,-4.8
CtBP-E1A blk,-2.5,1.9,-12.1,-0.6,-9.4,-9.3

19) COCCn1c(Cc2ccccc2)nnc1SCC(=O)NC1CC1
20) O=C1C(NS(=O)(=O)c2ccc(Cl)cc2)=C(N2CCCCC2)C(=O)c2ccccc21
21) CC(C)Oc1ccc(F)cc1-c1cc(C(=O)NCc2ccc(F)cc2)[nH]n1
22) CC1CCCCC1NC(=S)Nc1cccc(S(=O)(=O)N(C)C)c1 (stereo unspecified)
23) CCOC(=O)C(C)Sc1nc(=O)n2cc(C)ccc2n1 (stereo unspecified)
24) CC(C)c1ccc(NC(=O)COC(=O)Cn2cnc3c2c(=O)n(C)c(=O)n3C)cc1

Compound,19,20,21,22,23,24
D2 agonist,-5.7,6.1,-2.7,-5.4,-0.3,-0.2
PINK1 expr mod,-1.1%,22.0%,0.8%,-0.2%,2.2%,0.5%
D2 PAM,-3.6,?,-15.6,-12.1,-5.3,4.1
TRPML1 ag,0.6,?,-0.2,1.3,0.4,-0.7
Six1-Eya2 inh,122.0,-80.4*,0.2,9.3,7.5,1.2
CtBP-E1A blk,0.8,-81.2*,-1.7,-2.2,2.6,1.6

25) O=C(CCNS(=O)(=O)c1cccc2nonc12)NC1CCCc2ccccc21 (stereo unspecified)
26) CC(C)c1ccc(C2(C)NC(=O)N(C(C)C(=O)Nc3ccc(N4CCOCC4)cc3)C2=O)cc1 (stereo unspecified)
27) CC(=Cc1cccs1)C(=O)c1ccccc1
28) CCCS(=O)(=O)NC(=O)C1(C)CCN(C(=O)c2ccc(C(=O)OC)cc2)C1 (stereo unspecified)
29) CC(C)(C)SCCNC(=O)c1ccc(Cl)c(S(=O)(=O)N2CCOCC2)c1
30) COc1ccc(Oc2ccc(N/C=C/C(=O)C(C)(C)C)cc2)cc1

Compound,25,26,27,28,29,30
D2 agonist,0.6,-0.9,-3.9,-5.8,-3.5,-4.9
PINK1 expr mod,-2.6%,3.0%,1.4%,0.8%,-1.0%,9.1%
D2 PAM,13.1,-0.3,-8.4,-11.1,1.0,-8.8
TRPML1 ag,-0.6,0.5,1.5,-0.2,-0.8,-0.2
Six1-Eya2 inh,2.6,5.6,12.7,-2.7,-0.5,-10.5
CtBP-E1A blk,-10.5,16.9,-9.3,6.2,-2.2,/

31) CCOC(=O)N1CCN(C(=O)CSc2ccc(-c3cccc(OC)c3)nn2)CC1
32) CC1CCCCC1NC(=S)NC(=O)c1sc2ccccc2c1Cl (stereo unspecified)
33) CC1CC(C)CN(CCCNC(=O)C2CCC(=O)N2C2CCCC2)C1 (stereo unspecified)
34) CCN(CCCNC(=O)CCNC(=O)Cn1ccc2ccccc2c1=O)c1ccccc1
35) Cc1[nH]c2ccccc2c1C(=O)CSc1nncn1C
36) O=C(Cc1ccc(Cl)cc1)N/N=C/c1ccncc1

Compound,31,32,33,34,35,36
D2 agonist,-0.8,-0.7,-1.6,-0.2,-2.3,1.8
PINK1 expr mod,0.6%,6.2%,-2.1%[38.3 µM],1.1%,1.0%,-2.1%
D2 PAM,8.9,-7.0,-14.1,-19.4,-2.0,-8.0
TRPML1 ag,2.6,-0.8,-0.2,1.1,1.4,1.4
Six1-Eya2 inh,0.4,-19.1,0.0,0.1,-3.2,11.2
CtBP-E1A blk,0.5,-20.7,0.0,-4.5,-6.3,2.7

# The final four entries of the part above open the next one.
33) CC1CC(C)CN(CCCNC(=O)C2CCC(=O)N2C2CCCC2)C1 (stereo unspecified)
34) CCN(CCCNC(=O)CCNC(=O)Cn1ccc2ccccc2c1=O)c1ccccc1
35) Cc1[nH]c2ccccc2c1C(=O)CSc1nncn1C
36) O=C(Cc1ccc(Cl)cc1)N/N=C/c1ccncc1
37) CNc1ccc(-c2cccc(CO)c2)cn1
38) CCc1ccc(C(=O)COC(=O)c2cccc(N3C(=O)c4c(C)nc5ccccc5c4C3=O)c2)cc1
39) O=C(OCc1ccccc1)N1CCN(C(c2ccnc3ccccc23)c2nnnn2-c2ccc3c(c2)OCCO3)CC1 (stereo unspecified)
40) COc1ccc(O)c(/C=N/NC(=S)Nc2cccnc2)c1
41) CSC(=S)N/N=C(\C)c1ccc(Br)cc1
42) CN(C)C=Nc1ccc(Cl)c(Cl)c1

Compound,33,34,35,36,37,38,39,40,41,42
D2 agonist,-1.6,-0.2,-2.3,1.8,-8.2,0.3,/,-7.5,-0.3,-0.4
PINK1 expr mod,-2.1%[38.3 µM],1.1%,1.0%,-2.1%,2.5%,-4.2%,4.8%,0.3%,3.4%,0.9%
D2 PAM,-14.1,-19.4,-2.0,-8.0,-9.7,-2.2,/,-8.6,-13.3,-2.4
TRPML1 ag,-0.2,1.1,1.4,1.4,-0.9,0.1,-0.1,1.1,-0.3,1.0
Six1-Eya2 inh,0.0,0.1,-3.2,11.2,2.5,-3.4,-13.9,-89.6*,-0.4,-17.3
CtBP-E1A blk,0.0,-4.5,-6.3,2.7,1.8,-5.3,-8.6,/,-16.3,1.7

43) O=C(COc1ccccc1)NC1CCN(Cc2ccccc2)CC1
44) OC(c1cccc(Cl)c1)c1nccc2ccccc12 (stereo unspecified)
45) Cc1cc(C)cc(NC(=O)COC(=O)CN=C2NS(=O)(=O)c3ccccc32)c1
46) CC1(C(=O)Nc2cnc3ccccc3c2)CCN1C(=O)CC(c1ccccc1)c1ccccc1 (stereo unspecified)
47) CC1(C)Cc2c(sc3nc(-c4ccccc4)n(N)c(=O)c23)CO1
48) COc1cccc(CNC(=O)c2ccc(S(=O)(=O)N3CCCC3)cc2)c1

Compound,43,44,45,46,47,48
D2 agonist,-3.0,-1.8,-0.4,2.8,0.6,0.3
PINK1 expr mod,0.4%[38.3 µM],2.9%,0.9%,7.6%,-0.5%,-2.8%
D2 PAM,-13.9,-5.2,-54.5,-11.8,12.7,-0.4
TRPML1 ag,-0.1,1.2,0.6,1.6,-0.7,1.5
Six1-Eya2 inh,1.2,2.9,-19.5,-2.2,-8.8,0.8
CtBP-E1A blk,-2.7,3.5,/,1.9,11.3,-10.4

# Shown as a hit in CtBP-E1A blk, among the entries above:
no. | SMILES | D2 agonist | PINK1 expr mod | D2 PAM | Six1-Eya2 inh | CtBP-E1A blk
20 | O=C1C(NS(=O)(=O)c2ccc(Cl)cc2)=C(N2CCCCC2)C(=O)c2ccccc21 | 6.1 | 22.0% | ? | -80.4* | -81.2*

# The listing continues.
49) Cc1ccc(C(=O)OC(C(=O)Nc2ccc(Cl)cc2C(F)(F)F)c2ccccc2)cc1 (stereo unspecified)
50) Cc1[nH]n(-c2ccccc2)c(=O)c1N=Nc1nccs1
51) Cc1cccc(C)c1NC(=O)C(=O)NCCc1c[nH]c2ccccc12
52) CC(C)C(=O)NC(NC(=S)Nc1cccc2cccnc12)C(Cl)(Cl)Cl (stereo unspecified)
53) Cc1noc(C)c1CSCC(=O)NCCN1C(=O)S/C(=C\c2ccccc2F)C1=O
54) O=C(Cc1ccc(F)cc1)Nc1ccccc1N1CCCC1
55) C=CCOc1ccc(C=NNc2ccc(S(=O)(=O)Nc3ccccc3C(=O)O)cc2[N+](=O)[O-])cc1OC
56) CCCn1c(SCC(=O)NC(C)C)nc2sc3c(c2c1=O)CCC3

Compound,49,50,51,52,53,54,55,56
D2 agonist,-1.8,-8.4,-1.6,0.1,-1.4,-4.8,6.0,2.3
PINK1 expr mod,7.0%,0.0%[38.3 µM],1.5%,-1.5%,-0.7%,1.1%,0.2%,1.8%
D2 PAM,-5.9,-22.0,0.6,3.9,-1.3,0.5,-4.5,1.0
TRPML1 ag,1.6,1.0,2.3,0.5,0.5,1.2,0.9,2.0
Six1-Eya2 inh,27.1,-17.0,8.0,-7.8,-12.8,0.5,-7.8,3.0
CtBP-E1A blk,1.5,-22.3,5.5,-14.4,-4.0,-4.8,-14.8,2.3
